# Source: PubChem BioAssay
# SARS PLpro yeast = blocks SARS-CoV papain-like protease in a yeast assay; S. cerevisiae expressing SARS-CoV PLpro, growth rescue; control for the full effect not named in the record; Potency, µM (top dose mostly 32.9 µM), for inactives: at the highest dose activity, positive = growth rescue; 330,000 compounds, 0.19% hits; AID 485353; note: 0% is about no effect; nearly all actives have a fitted effect of over 55% in size; growth read by luminescence after 48 h
# MARV entry inh = Marburg virus entry inhibition. Potency, µM (titrated, usually from 37.8 µM), for the others: top-dose activity change, negative = inhibition, actives largely listed as inhibitors. Marburg virus pseudotyped entry inhibition, cell reporter; control for the full effect not named in the record; about a third of the inactives were read at about 46 µM. 300,000 compounds, 1.8% hits; active = well fitted inhibition curve with a large enough effect; inconclusive = small, poorly fitted or top-dose-only effect, or effect the other way; inactive = flat fitted curve, though single readings scatter; tested in HEK293 cells; about a fifth of its hits are not listed in these tables; note: % is set by controls: 0 for no effect and ±100 for the full control effect; luciferase read-out
# LASV entry inh = Lassa virus entry inhibition; AID 540256; 300,000 compounds, 1.2% hits; Potency, µM (series often up to 37.9 µM), for inactives: at the highest dose activity change, negative = inhibition, usual class: inhibitors; Lassa virus pseudotype entry inhibition, cell reporter; control for the full effect not named in the record; active means well fitted inhibition curve with a large enough effect; inconclusive means small, poorly fitted or top-dose-only effect, or effect the other way; inactive means flat fitted curve, though single readings scatter; tested in HEK293 cells; note: % is set by controls: 0 for no effect and ±100 for the full control effect; nearly all actives have a fitted effect of over 50% in size; luciferase read-out
# RE007 growth inh = less growth of the S. pombe RE007 Vpr strain | S. pombe RE007 Vpr strain, BacTiter-Glo ATP luminescence, 24 h; control for the full effect not named in the record | AID 651644 | Potency, µM (doses to about 92.2 µM), for inactives: top-dose activity change, negative = less growth | 360,000 compounds, 0.21% hits; active = well fitted falling curve with a large enough effect; inconclusive = small, poorly fitted or top-dose-only effect; inactive = no such curve, though single readings can be large or run the other way;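 note: % is set by controls: 0 for no effect and ±100 for the full control effect; nearly all actives have a fitted effect of over 50% in size; the assay follows cell death caused by Vpr and the record does not say whether a fall means rescue or toxicity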
#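 Fission yeast strain RE007, carrying one chromosomally integrated HIV-1 vpr copy, was seeded at OD 0.01 in PMG+AL medium with 23 nL pinned compound. After 24 h at 30 °C and 99% humidity, viability was read by BacTiter-Glo luminescence.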
# Cruzain noTriton = cruzain (T. cruzi) inhibition without detergent; purified cruzain, Z-FR-AMC fluorescence, no detergent; 200,000 compounds, 2.3% hits; Potency, µM, for inactives: max response, negative = inhibition, most hits filed as inhibitors; AID 1476; active = well fitted curve in the direction sought with a large enough effect; inconclusive = small, poorly fitted or top-dose-only effect, or another doubt; inactive = no such curve, though single readings can be large; an effect the other way counts as inactive or inconclusive;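 note: plate controls were enzyme without inhibitor for no effect and buffer without enzyme for full effect; nearly all actives have a fitted effect of over 40% in size; top concentration of the series not given in the record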
# Target sequence (P25779 123-467 limits assumed): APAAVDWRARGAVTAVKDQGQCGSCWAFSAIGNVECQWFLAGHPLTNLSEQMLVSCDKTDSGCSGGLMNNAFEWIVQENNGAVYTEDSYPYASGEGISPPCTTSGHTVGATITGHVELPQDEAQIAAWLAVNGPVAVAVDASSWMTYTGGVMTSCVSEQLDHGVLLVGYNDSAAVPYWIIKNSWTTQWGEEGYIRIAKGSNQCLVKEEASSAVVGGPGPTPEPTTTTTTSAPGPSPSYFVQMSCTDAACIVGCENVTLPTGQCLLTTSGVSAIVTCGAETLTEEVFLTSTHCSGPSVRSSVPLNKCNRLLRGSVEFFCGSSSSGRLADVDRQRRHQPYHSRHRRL
#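 Detergent-free condition (0.00005% Triton X-100) in acetate buffer pH 5.5 with DTT. 1.5 nM enzyme and compound were pre-mixed 15 min, then 2 uM Z-FR-AMC substrate added; reaction progress from fluorescence change between first and third reads (60 s).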
# NS1 inh = influenza NS1 inhibition. S. cerevisiae slowed by influenza A NS1, growth recovery by OD600. Potency, µM (top dose mostly 46.1 µM), without a hit: at the top dose activity, positive = more growth. 270,000 compounds, 0.4% hits; note: actives are rising curves; nearly all actives have a fitted effect of over 50% in size
#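 In this qHTS, NS1 from influenza A is expressed in budding yeast, where it slows growth. Cells are switched from glucose to 2% galactose medium (pH 6.0, -URA), treated with compound, and growth recovery is read at OD600.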
# Cruzain inh Det = inhibitors of Trypanosoma cruzi cruzain with detergent; Potency, µM, without a hit: max response, negative = inhibition, most hits filed as inhibitors; 200,000 compounds, 0.43% hits; purified cruzain, Z-FR-AMC fluorescence, 0.01% Triton; P25779; active = well fitted curve in the direction sought with a large enough effect; inconclusive = small, poorly fitted or top-dose-only effect, or another doubt; inactive = no such curve, though single readings can be large; an effect the other way counts as inactive or inconclusive;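 note: plate controls were neutral wells for no effect and buffer without enzyme for full effect; nearly all actives have a fitted effect of over 40% in size; top concentration of the series not given in the record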
#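 Enzyme 1.5 nM, Z-FR-AMC 2 uM, NaOAc 100 mM pH 5.5, DTT 5 mM, Triton X-100 0.01%; 15 min RT compound preincubation; kinetic ex360/em450, 60 s delta.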
# StopGo reporter = FMDV 2A StopGo reporter, luciferase signal. human cells with a luciferase reporter of 2A StopGo recoding; control for the full effect not named in the record. Potency, µM (titrated, usually from 57.9 µM), without a hit: top-dose signal change, negative = less light. 410,000 compounds, 1.2% hits. AID 1159524; active = well fitted falling curve with a large enough effect; inconclusive = small, poorly fitted or top-dose-only effect; inactive = no such curve, though single readings can be large or run the other way; tested in HEK293T cells; note: % is set by controls: 0 for no effect and ±100 for the full control effect; nearly all actives have a fitted effect of over 45% in size; luciferase light after 4 h
# * marks the source's active call; other numbers are inactive results; ? = inconclusive; / = not tested or not shown; & = joins results of further samples; [ ] = remark or other dose. Unless noted, calls come from the whole dose curve; as a rule, active means well fitted rising curve with a large enough effect; inconclusive means small, poorly fitted or top-dose-only effect; inactive means no such curve, though single readings can be large or run the other way. Potency is the fitted concentration of half-maximal effect.
SMILES,SARS PLpro yeast,MARV entry inh,LASV entry inh,RE007 growth inh,Cruzain noTriton,NS1 inh,Cruzain inh Det,StopGo reporter
O=C(COC(=O)c1cnccn1)NCCc1ccc(Cl)cc1Cl,-4.9%,6.1%,0.3%,4.4%,/,/,/,-3.0%
c1ccc(CSc2ccc(-c3cccnc3)nn2)cc1,-3.1%,?,-16.0%[46.1 µM],7.6%,/,/,/,10.1%
Cc1ccc(-c2cc(C(=O)O)c3cc(Br)ccc3n2)o1,6.5%,1.1%,-2.9%,/,-5.0%,17.1%,-6.7%,26.6%
CCOC(=O)C1CCN(C(=O)c2ccc(Cl)c(S(=O)(=O)N3CCOCC3)c2)CC1,-0.5%,6.9%,3.6%,-14.5%,2.8%,4.3%,4.4%,/
COc1ccc(CCNC(N)=S)cc1OC,9.0%,29.4%,1.3%,-1.4%,1.9%,9.3%,-0.7%,-13.8%
S=c1[nH]cc(-c2ccccc2)n1-c1cccc(Cl)c1,-2.9%,-11.2%,-5.2%,7.6%,-12.1%,21.3%,-3.0%,0.0%
c1ccc2cc(OCc3nc4ccccc4[nH]3)ccc2c1,-5.8%,?,3.4%,4.7%,-7.9%,-4.4%[9.22 µM],-19.8%,/
COc1ccc(C)cc1NC(=O)C(OC(=O)C1CC1)c1ccccc1 (stereo not drawn),2.1%,?,16.1%,13.9%,/,-1.1%,/,7.3%
COc1ccc([N+](=O)[O-])cc1NC(=O)C(C)N(C)Cc1cccc(OC)c1OC (stereo not drawn),13.2%,?,?,-18.8%,1.7%,2.1%,-0.7%,?
Cc1cccc(N(C)S(=O)(=O)c2c(C)noc2C)c1,-9.0%,/,/,14.8%,/,3.3%,/,?

# A different layout for two compounds above:
SMILES	SARS PLpro yeast	MARV entry inh	LASV entry inh	RE007 growth inh	Cruzain noTriton	NS1 inh	Cruzain inh Det	StopGo reporter
Cc1ccc(-c2cc(C(=O)O)c3cc(Br)ccc3n2)o1	6.5%	1.1%	-2.9%	/	-5.0%	17.1%	-6.7%	26.6%
CCOC(=O)C1CCN(C(=O)c2ccc(Cl)c(S(=O)(=O)N3CCOCC3)c2)CC1	-0.5%	6.9%	3.6%	-14.5%	2.8%	4.3%	4.4%	/

# Next part:
SMILES,SARS PLpro yeast,MARV entry inh,LASV entry inh,RE007 growth inh,Cruzain noTriton,NS1 inh,Cruzain inh Det,StopGo reporter
COC(=O)/C=C1\S/C(=N\N=C\CC(=O)OC)NC1=O,-5.7%,-6.2%[46.1 µM],-5.2%,-7.1%,/,6.7%,/,-11.8%
COc1ccc(CC(=O)Nc2ccc3nc(SC)sc3c2)cc1OC,3.6%,-13.2%[46.1 µM],2.7%[46.1 µM],12.5%,/,/,/,0.8%
CCOc1ccc(CNC(=O)Nc2ccccc2)cc1,-1.8%,?,?,22.4%,/,-5.7%,/,48.8%[activator]
CCCn1c(CCC(=O)Nc2ccc(OCC)cc2)nc2cccnc21,/,-0.8%[46.1 µM],-0.2%[46.1 µM],/,-4.1%,/,0.8%,15.0%
Cc1ccc(NC(=O)CSc2nc3c(oc4ccccc43)c(=O)n2Cc2ccco2)cc1,/,-0.7%[46.1 µM],/,/,1.4%,/,0.6%,21.9%
C=CCOCCN1C(=O)C2C(c3ccccc3)C=CC(c3ccccc3)C2C1=O (stereo not drawn),/,?,24.0%,0.8%,?,-7.6%,2.3%,?
Cc1cc(=O)[nH]c2nnc(SCc3cccc(F)c3)n12,/,/,-0.4%[46.1 µM],/,-5.2%,/,-3.0%,25.8%
O=C(NCC1CCCO1)c1ccc(S(=O)(=O)N2CCCCC2)cc1 (stereo not drawn),2.5%,-4.1%,-2.5%,14.8%,-11.4%,1.7%,4.9%,-11.4%
O=C(CCC1CCCCC1)Nc1ccc(S(=O)(=O)Nc2nccs2)cc1,9.2%,8.2%,4.9%,4.7%,-4.1%,6.1%,-11.8%,/
CCn1c(SCC(=O)Nc2nccs2)nnc1-c1ccc(S(=O)(=O)N2CCCCCC2)cc1,10.4%,?,?,-2.0%,0.2%,9.0%,2.8%,?
Cc1c(Br)c([N+](=O)[O-])nn1CC(=O)c1ccccc1,-0.8%,/,/,8.3%,/,-8.9%,/,-15.1%
CC1(C)CC(=O)C/C(=N\NC(=O)CCc2ccc(S(=O)(=O)N3CCOCC3)cc2)C1,3.7%,?,/,-2.3%,/,/,/,-2.7%
CSc1ccccc1NC(=O)c1cccnc1,-2.9%,0.1%,36.5%[14.3 µM],-7.4%,-4.6%,3.9%,-0.5%,28.6%
CCCN(CCC)C(=O)Cn1c(=O)n(-c2ccc(C)c(C)c2)c(=O)c2c3c(sc21)CCCCC3,/,19.6%[46.1 µM],?,/,-7.2%,/,-3.6%,-28.7%
COc1ccc(-c2cc(C(F)(F)F)nc(SCC(=O)Nc3cc(C)on3)n2)cc1OC,2.3%,-26.0%&-26.0%,-19.7%,8.9%,?,7.2%,?,-10.3%
CCC(=O)N1c2ccc(S(=O)(=O)N3CCN(CC)CC3)cc2CC1C (stereo not drawn),1.4%,/,/,9.8%,/,-6.5%,/,-11.0%
Cc1ccc(NC(=O)CSc2nc(-c3cccs3)nc3cc(=O)[nH]n23)cc1C,0.6%,/,-6.5%[46.1 µM],/,1.0%,/,1.4%,6.0%
Cc1cc(C)n2c(=O)[nH]nc2c1,/,4.0%[46.1 µM],9.8%[46.1 µM],8.4%,/,/,/,6.0%
CC[N+](CC)(CC=C(C)C)CC(=O)OC,0.0%,/,/,7.6%,/,3.2%,/,-13.5%
O=C(CNC(=O)c1ccco1)NCc1ccc2c(c1)OCO2,9.0%,-3.1%,?,-6.6%,/,/,/,11.8%
COc1ccc(/C(N)=N/OC(=O)c2ccco2)cc1,-4.3%,?,7.08µM*,-22.3%,/,2.4%,/,-45.5%
CCOC(=O)C1=C(C)N(C)C(=S)NC1c1ccccc1Cl (stereo not drawn),25.7%,-23.9%[46.1 µM],-7.7%,25.6%,-3.6%,-9.6%,-2.9%,?
C=CCOc1ccccc1CN1CCC(Oc2ccc(C(=O)N3CCCCC3)cc2)CC1,-1.3%,3.16µM*,-17.5%,0.6%,/,-5.1%,/,-7.1%

# Compounds listed so far containing an aryl thioether with sulfur outside any ring, in the order listed:
SMILES,SARS PLpro yeast,MARV entry inh,LASV entry inh,RE007 growth inh,Cruzain noTriton,NS1 inh,Cruzain inh Det,StopGo reporter
c1ccc(CSc2ccc(-c3cccnc3)nn2)cc1,-3.1%,?,-16.0%[46.1 µM],7.6%,/,/,/,10.1%
COc1ccc(CC(=O)Nc2ccc3nc(SC)sc3c2)cc1OC,3.6%,-13.2%[46.1 µM],2.7%[46.1 µM],12.5%,/,/,/,0.8%
Cc1ccc(NC(=O)CSc2nc3c(oc4ccccc43)c(=O)n2Cc2ccco2)cc1,/,-0.7%[46.1 µM],/,/,1.4%,/,0.6%,21.9%
Cc1cc(=O)[nH]c2nnc(SCc3cccc(F)c3)n12,/,/,-0.4%[46.1 µM],/,-5.2%,/,-3.0%,25.8%
CCn1c(SCC(=O)Nc2nccs2)nnc1-c1ccc(S(=O)(=O)N2CCCCCC2)cc1,10.4%,?,?,-2.0%,0.2%,9.0%,2.8%,?
CSc1ccccc1NC(=O)c1cccnc1,-2.9%,0.1%,36.5%[14.3 µM],-7.4%,-4.6%,3.9%,-0.5%,28.6%
COc1ccc(-c2cc(C(F)(F)F)nc(SCC(=O)Nc3cc(C)on3)n2)cc1OC,2.3%,-26.0%&-26.0%,-19.7%,8.9%,?,7.2%,?,-10.3%
Cc1ccc(NC(=O)CSc2nc(-c3cccs3)nc3cc(=O)[nH]n23)cc1C,0.6%,/,-6.5%[46.1 µM],/,1.0%,/,1.4%,6.0%
